Screening data deposited in PubChem BioAssay by several laboratories.
Vif A3G: inhibitors of Vif binding to APOBEC3G peptide, primary screen, biochemical, TR-FRET, GST-Vif 1-94, biotin-A3G peptide, dose response retest (AID 1117319); TR-FRET GST-Vif / biotin-A3G peptide binding; higher % means a stronger effect; test concentration not given here; strong numbers were not always called active; inhibition, %; hits with a dose series show IC50 in µM; 0.57% of 260,000 active;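 active = above the screen mean plus three standard deviations and confirmed in dose response; inconclusive = results disagree or hit not tested in dose response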;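 note: Vif residues 1-94 fused to GST binding biotinylated APOBEC3G peptide 110-148; 0% = full assay without inhibitor and 100% = GST in place of GST-Vif; retest series ran down from 100 µM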
HNF4A DNA FP: change in binding of human HNF4 alpha to DNA; HNF4a-FITC DNA binding, fluorescence polarization, 1 h; AID 1224865; 0.3% of 360,000 active; activity change, % at 10 µM; in the data active = activity change above about 30%, passing the limit was not always enough;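 note: controls were the assay level and a saturating level of protein; the project sought stronger binding though the title names inhibitors; some compounds called inactive have numbers as strong as hits; positive values seem to mean higher polarization but the record does not say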
Target sequence (P41235 whole entry, looked up): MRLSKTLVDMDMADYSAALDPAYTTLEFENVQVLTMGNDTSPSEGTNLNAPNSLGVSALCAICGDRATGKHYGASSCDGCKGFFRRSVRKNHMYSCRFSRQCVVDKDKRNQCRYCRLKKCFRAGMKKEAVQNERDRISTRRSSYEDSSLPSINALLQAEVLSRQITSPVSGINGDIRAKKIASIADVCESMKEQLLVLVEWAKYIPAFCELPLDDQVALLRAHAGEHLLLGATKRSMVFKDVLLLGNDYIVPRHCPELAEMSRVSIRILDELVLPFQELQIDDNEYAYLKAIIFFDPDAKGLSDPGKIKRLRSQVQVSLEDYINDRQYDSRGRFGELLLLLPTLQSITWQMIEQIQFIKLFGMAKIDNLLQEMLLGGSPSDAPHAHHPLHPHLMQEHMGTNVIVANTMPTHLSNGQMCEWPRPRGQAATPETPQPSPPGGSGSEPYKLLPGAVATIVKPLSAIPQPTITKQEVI
E coli growth: inhibitors of Escherichia coli growth; OD600, 23 h; hits give low values; OD600 absorbance (concentration not given with the values); 0.21% of 330,000 active; AID 1053175;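 active = OD600 absorbance below the run mean of sample wells minus 3.6 SD, in any replicate, cut at about 0.56 in these data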;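 note: stock transfer was 300 nL into about 60 µL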
FGF22 binding: shifts melting point of recombinant human FGF22. Q9HCT0. recombinant FGF22 thermal shift, SYPRO orange fluorescence; percent of sucrose octasulfate shift, DMSO zero. calls only at 9.99 µM. 1.5% of 340,000 active;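 active = melting point raised past a set limit in the mean and every replicate; inconclusive = no clear call; three in four hits are not shown here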
MLL AF4-AF9 inh: MLL-AF4/AF9 protein interaction inhibition. P42568. AlphaScreen, biotin-AF4 peptide binding to FLAG-AF9. 0.47% of 350,000 active. inhibition, % at 10 µM;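 active = every replicate reaching a set inhibition limit, whatever the replicate mean, cut at about 25% in these data; inconclusive = mean inhibition reaches that limit but some replicates miss it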;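 note: 0% = plate neutral control median and 100% = total signal loss; the record names both 10 and 1 µM as test concentration; the first replicate is given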
Target sequence (P42568 whole entry, looked up): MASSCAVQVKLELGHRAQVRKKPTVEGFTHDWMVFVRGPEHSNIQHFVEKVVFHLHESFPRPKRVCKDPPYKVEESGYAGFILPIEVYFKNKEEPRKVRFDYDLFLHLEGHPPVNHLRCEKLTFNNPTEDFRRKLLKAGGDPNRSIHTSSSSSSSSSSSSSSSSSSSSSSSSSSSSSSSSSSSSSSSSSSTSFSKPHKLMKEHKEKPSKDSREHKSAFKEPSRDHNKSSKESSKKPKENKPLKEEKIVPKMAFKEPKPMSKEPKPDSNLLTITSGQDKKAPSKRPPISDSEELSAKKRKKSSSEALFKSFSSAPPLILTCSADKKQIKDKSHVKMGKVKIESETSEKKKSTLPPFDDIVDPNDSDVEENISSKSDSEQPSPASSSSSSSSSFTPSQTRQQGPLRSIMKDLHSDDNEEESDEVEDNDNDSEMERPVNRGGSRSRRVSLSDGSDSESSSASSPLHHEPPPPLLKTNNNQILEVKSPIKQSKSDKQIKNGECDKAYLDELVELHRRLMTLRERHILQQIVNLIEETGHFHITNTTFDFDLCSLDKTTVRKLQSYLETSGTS
UCH37 inh: inhibitors of human deubiquitinating enzyme UCH37; Q9Y5K5; purified proteasome/UCH37, Ub-AMC cleavage fluorescence; inhibition, % (test concentration not listed); 0.33% of 330,000 active; AID 588478;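 active = mean of two replicates above 20%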;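 note: 0% = compound-free wells with enzyme and 100% = wells lacking proteasome; stock transfer was 100 nL into about 20 µL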
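System: Proteasome-associated human UCH37 deubiquitinase; Input: 0.15 nM proteasome in added enzyme buffer; Also added: Ub-AMC substrate from 1 µM stock; Incubation: 30 min compound-proteasome preincubation then 25 min substrate reaction, room temperature; Detection: fluorescence, ex 355 nm, em 460 nm; Read-out: % inhibition of Ub-AMC cleavage fluorescence; Benchmarks: no-proteasome and no-compound wells.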
RanGTP-Impb inh: disruptors of Ran-importin-beta complex formation – biochemical, FRET, CFP-Ran, YFP-importin-beta, homogeneous, primary screen. cell-free CFP-Ran/YFP-importin-beta FRET ratio. inhibition, % (test concentration not listed). 1.1% of 300,000 active;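 active = most replicates above 15%; inconclusive = exactly half above 15%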;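 note: 0% = DMSO wells and 100% = Ran loaded with GDP instead of GTP; wells of about 40 µL received 100 nL stock; the first replicate is given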
An asterisk follows results filed as active; i = inactive; ? = inconclusive; / = no result given. Only part of the results is shown; rates above refer to the full screens.

SMILES	Vif A3G	HNF4A DNA FP	E coli growth	FGF22 binding	MLL AF4-AF9 inh	UCH37 inh	RanGTP-Impb inh
O=C(NNC(=O)C1CCC1)c1ccc(Br)cc1	-9%	-1.8	0.72	i	-0.6	1.8	?
Cc1ccc(-c2csc(NC(CO)c3nc4ccccc4n3CCOCCO)n2)cc1 (centres undefined)	/	1.6	0.69	i	-0.4	1.6	7.1
O=C(Cn1cnc2ccccc2c1=O)Nc1ccc2c(c1)CCC2	-2%	-1.5	0.66	/	/	2.3	?
COc1ccccc1CN1C(=O)C(Cc2ccccc2)ON=C1c1ncccc1C (centres undefined)	/	-3.5	/	i	0.0	/	/
Cc1occc1-c1nnc(SCC(=O)Nc2ccccc2N2CCCCC2)n1C	1%	-2.2	0.69	/	/	0.6	-4.8
O=C(CC[C@H]1O[C@@H](n2ccc(=O)[nH]c2=O)[C@H](O)[C@@H]1O)NCCN1CCOCC1	/	0.3	/	i	0.9	/	/
COc1cccc(OCc2nn[nH]n2)c1	/	-0.1	0.68	i	-1.4	2.6	1.9
COc1ccc(S(=O)(=O)N2CCCCC2)cc1NS(=O)(=O)c1ccc(CNC(C)=O)cc1	-2%	-3.4	0.72	i	0.1	0.2	/
Cc1ccc(S(=O)(=O)Nc2c(C)ccc3nsnc23)cc1	-1%	4.1	0.72	/	/	-2.0	-0.8
COc1cc(/C=N/NC(=O)c2cc(C3CC3)[nH]n2)ccc1O	6%	-6.2	/	i	-1.3	/	-1.5
COc1ccccc1Nc1nc(N)nc(CSc2nccc(C)n2)n1	12%	1.4	0.72	/	/	1.5	4.2
COC(=O)CN1C(=O)[C@@H]2[C@H](C1=O)[C@@H]1CC(C(=O)OC)=C[C@@H](C(=O)OC)[C@@H]3C1=C(C(=O)[C@]3(C)NC(=O)c1ccccc1)[C@@H]2C	/	3.1	/	i	-7.7	2.8	-1.0
Cc1ccc(NC(=O)CN(C)C(=O)COc2c(Cl)cc(Cl)c3ccc(C)nc23)cc1	-7%	1.0	0.74	i	-1.6	1.0	0.0
O=C(CSc1cccc[n+]1[O-])Nc1cc(S(=O)(=O)N2CCOCC2)ccc1Cl	29%	0.3	/	/	/	/	-3.1
CC(C)c1nnc(NC(=O)CCC(=O)NCc2ccc3c(c2)OCO3)s1	0%	-0.1	0.65	/	/	5.7	-2.2
CC(C)CCNC(=O)C1CCC(CNc2c(N3CCC(C)CC3)c(=O)c2=O)CC1 (centres undefined)	15%	2.8	0.68	i	4.3	2.3	-5.2
CCOC(=O)c1cc(NC(=O)CN2CCCC2)cc(C(=O)OCC)c1	/	2.4	0.66	i	2.0	1.8	1.4
C=CC(=O)NN(C)c1ncc(C(F)(F)F)cc1Cl	-1%	2.9	0.68	i	-5.8	3.7	-0.2
O=C(Nc1ccccc1Cl)c1cccc(COc2cc(Cl)ccc2Cl)c1	-6%	-5.2	0.68	/	/	5.3	3.0
CCOC(=O)c1ccc(NC(=O)c2cc(S(=O)(=O)N3CCOCC3)ccc2O)cc1	25%	1.5	0.73	/	/	-2.9	4.3
Cc1c(/N=C(\[O-])Nc2ccc(Br)cc2)sn[n+]1C	/	-2.5	0.66	i	1.1	1.1	0.2
CN(C)/C=C(\C#N)C(=O)N/N=C/c1ccc(Cl)cc1	/	0.2	/	i	-1.3	/	-2.9
CC[C@]12c3[nH]c4cc(CCC(=O)N(C)C)ccc4c3CCN1C(=O)[C@@H](CC(=O)NCCc1ccccn1)C[C@@H]2C(=O)N1CCN(C(=O)C2CC2)CC1	3%	0.6	0.71	i	-2.2	4.8	/
S=c1[nH]nc(-c2ccc3ccccc3n2)n1-c1ccc2ncccc2c1	/	-1.1	0.7	i	-2.2	1.0	2.5
Nc1ccn([C@@H]2O[C@H](CNCc3cccc4c3sc3ccccc34)[C@@H](O)[C@H]2O)c(=O)n1	9%	0.4	/	i	-2.0	/	/

Shown with two lines to a compound: 3 of the compounds above
Value order – Vif A3G | HNF4A DNA FP | E coli growth | FGF22 binding | MLL AF4-AF9 inh | UCH37 inh | RanGTP-Impb inh
Cc1ccc(-c2csc(NC(CO)c3nc4ccccc4n3CCOCCO)n2)cc1 (centres undefined)
    / | 1.6 | 0.69 | i | -0.4 | 1.6 | 7.1
O=C(Cn1cnc2ccccc2c1=O)Nc1ccc2c(c1)CCC2
    -2% | -1.5 | 0.66 | / | / | 2.3 | ?
COc1ccccc1CN1C(=O)C(Cc2ccccc2)ON=C1c1ncccc1C (centres undefined)
    / | -3.5 | / | i | 0.0 | / | /

Next part.
SMILES	Vif A3G	HNF4A DNA FP	E coli growth	FGF22 binding	MLL AF4-AF9 inh	UCH37 inh	RanGTP-Impb inh
O=C(O)c1cc(-c2cc(C(=O)O)c3ccccc3n2)ccc1O	0%	1.8	0.63	/	-2.0	7.2	/
CCN(C(=O)COC(=O)c1ccc(COc2ccc3c(C)cc(=O)oc3c2)cc1)C1CCS(=O)(=O)C1 (centres undefined)	1%	4.0	0.67	i	-5.7	-72	5.0
O=S(=O)(c1cc(Cl)ccc1Cl)N1CCN(c2ccccn2)CC1	/	-0.9	0.7	i	1.9	-1.1	-1.0
CCN1CCN(Cc2cc(=O)oc3ccc(Cl)cc23)CC1	4%	-1.9	0.69	/	/	5.3	-4.4
COCCN1Cc2cccc(C(=O)NCCCN3CCCC3=O)c2C1=O	0%	2.6	0.67	i	0.3	-0.7	0.7
CCc1nnc(NC(=O)CSCc2cc(=O)n3cc(C)sc3n2)s1	0%	-1.6	0.7	i	-4.6	5.7	4.5
CN(C(=O)CSc1nc2cc(Cl)ccc2c(=O)n1Cc1ccco1)C1CCS(=O)(=O)C1 (centres undefined)	-1%	0.5	0.64	i	2.0	3.6	-1.4
COC(=O)c1ccc(NC(=O)COC(=O)CSc2nc(C)cc(C)n2)cc1	-3%	-0.5	0.72	/	/	2.7	7.7
Cc1cc2[nH]c(=O)c3ccccc3n2n1	23%	-3.0	0.64	/	/	-5.2	0.0
COc1ccc(C2=NN(C(=O)CCC(=O)O)C(c3ccc(OC)cc3)C2)cc1 (centres undefined)	/	-0.6	/	i	-3.4	/	2.6
N#C/C(=C/c1ccc(O)c(O)c1)C(=O)NCc1ccc(Cl)cc1	/	0.9	0.69	i	5.9	4.4	7.0
Cc1cccn2c(=O)c(/C=C(\C#N)C(N)=O)c(N3CCN(c4ccccc4)CC3)nc12	3%	-0.7	0.6	i	13	-24	4.7
CC(C)=CCc1c(O)ccc(C2COc3c(CC=C(C)C)c(O)cc(O)c3C2=O)c1O (centres undefined)	/	1.1	0.69	i	10	-0.3	2.0
CC1CCCN(C(=O)C2c3ccccc3C(=O)N3CCc4ccccc4C23)C1 (centres undefined)	?	0.6	0.72	/	/	0.6	?
CN(C(=O)COc1ccc(-c2nnco2)cc1)C1CCS(=O)(=O)C1 (centres undefined)	-2%	-2.4	0.58	i	-1.7	0.7	-1.3
CCn1c(CNC(=O)c2ccco2)nnc1SCC(=O)Nc1cccc(F)c1	6%	-3.6	0.69	i	-2.3	3.3	?
COc1ccc(-n2c(=O)c3ccccc3n(CC(=O)Nc3ccccc3OC)c2=O)cc1	3%	1.7	0.71	i	4.9	-2.5	1.8
CCC(=O)Nc1nnc(SCC(=O)Nc2ccc3c(c2)OCO3)s1	/	1.5	0.68	i	-1.1	1.8	-1.9
CCn1nc(C)c(NC(=O)CCSc2nc(-c3ccco3)cc(C(F)(F)F)n2)c1C	-3%	-1.7	0.72	/	/	2.2	-1.5
N#CC1C(=O)Nc2cccnc21 (centres undefined)	-1%	-3.7	/	i	-0.7	/	/
CC(C)N(Cc1ccccc1)C(=S)NCCN1CCOCC1	-4%	-2.8	0.7	i	-2.5	1.2	-0.7
CCC(C)n1c(=N)c(C#N)cc2c(=O)n3cc(C)ccc3nc21 (centres undefined)	-8%	-0.3	0.67	i	-0.4	i	4.6
COc1cc(F)ccc1-c1csc(C(O)(c2ccccc2)C(F)(F)F)n1 (centres undefined)	/	0.3	/	i	-4.0	/	/
CCOC(=O)c1ccc(NC(=O)CSCC(=O)OCC(=O)c2ccccc2)cc1	3%	-2.9	0.71	i	0.8	2.8	-2.4
CCOc1ccccc1N(CC(=O)NCCc1ccc(OC)c(OC)c1)S(=O)(=O)c1ccccc1	/	1.4	0.66	/	0.2	1.6	-1.0
Continued:
SMILES	Vif A3G	HNF4A DNA FP	E coli growth	FGF22 binding	MLL AF4-AF9 inh	UCH37 inh	RanGTP-Impb inh
C/C(CC(=O)Nc1cc(Cl)ccc1Cl)=N\NC(=O)COc1cccc(C)c1	-4%	0.0	/	i	0.3	/	-2.2
O=C(CCl)Nc1cccc(S(=O)(=O)NC2=NCCC2)c1	24%	0.9	0.68	i	-2.6	4.7	-0.8
Cc1ccc(CNC(=O)CN2CCC(C(N)=O)CC2)cc1	-2%	2.0	0.72	/	/	0.7	?
COc1ccccc1N/C(N)=N/c1nc(CSc2ccc(C)cc2)cc(=O)[nH]1	0%	-2.1	0.76	/	/	2.4	-4.1
O=C(CCS(=O)(=O)c1ccc(Br)cc1)NCCc1ccc(Cl)cc1	27%	-20	0.64	i	-18	-0.7	-3.3
CCC1CCCCN1S(=O)(=O)c1ccc(NC(=O)c2cccs2)cc1 (centres undefined)	?	-0.7	0.68	/	/	1.6	1.7
O=C(O)CC1(CC(=O)NCc2ccc(Cl)cc2)CCCCC1	2%	3.9	0.64	i	-0.8	4.9	6.3
CCOc1cccc(C(=O)Nc2cccc(-c3nnc(-c4ccc(C)cc4)o3)c2)c1	16%	-3.8	0.64	/	/	-188	-0.2
O=C(Nc1ccc(Cl)c(S(=O)(=O)N2CCOCC2)c1)c1cc2ccccc2oc1=O	-5%	1.9	0.71	i	-1.7	2.8	/
CCOCCCn1c(SCc2nc3sc(C(=O)O)c(C)c3c(=O)[nH]2)nnc1-c1ccc(Cl)cc1	/	1.0	0.73	i	-2.4	3.7	-0.2
COc1cccc2c1OC1(CCN(C(C)C)CC1)N1N=C(c3cccnc3)CC21 (centres undefined)	-3%	-2.3	0.69	i	3.6	-0.7	2.4
O=C(CSc1nnnn1C1CCCC1)NCc1cccs1	-4%	2.7	0.65	i	-1.1	0.3	6.1
COc1ccc2nc(SCC(N)=O)[nH]c2c1	?	2.8	0.66	/	/	3.3	4.9
O=[N+]([O-])c1ccc(SCCO)nc1SCCO	/	-2.1	0.65	i	0.1	8.6	-0.6
COc1ccc(C(=O)Nn2cnnc2)c(OC)c1	4%	1.5	0.68	/	/	4.6	2.1
O=C(Nc1ccc2c(c1)OCO2)C1CC(c2ccccc2Cl)=NO1 (centres undefined)	15%	-5.2	0.65	/	/	6.5	-2.0
Cc1nnc(NC(=O)c2cccc(NC(=O)C(C)C)c2)s1	5%	-1.4	0.7	/	/	5.8	3.7
CCN(CC)C(=O)c1ccc(-c2nnc(Nc3ccc(O)cc3)c3ccccc23)cc1	/	1.8	0.72	i	-1.6	11	3.3
Cc1nn(C)c(C)c1NC(=O)CCl	/	2.4	0.71	i	1.9	4.4	?
Cc1ccccc1-n1c(C)nnc1SCc1cc(=O)oc2ccc3ccccc3c12	26%	4.3	0.64	/	/	-26	1.1
CCN(c1ccc(OC)cc1)S(=O)(=O)N1CCCC(C(=O)NCc2ccc(OC(C)C)cc2)C1 (centres undefined)	0%	2.3	/	i	-1.4	/	/
COc1ccc(C(=O)NC2CCN(S(=O)(=O)c3ccc(C)cc3)CC2)cc1	-3%	4.5	0.67	i	3.6	3.0	-0.3
Cc1cc(SCc2ccc(Cl)cc2Cl)nc(=O)[nH]1	?	12	0.71	i	-1.0	1.1	1.9
CSc1ccccc1C(=O)NC1CCCc2ccccc21 (centres undefined)	/	0.1	0.62	i	1.9	1.7	0.1
COc1ccc(C(=O)N/N=C(\C)CC(=O)Nc2ccc3c(c2)OCCO3)c(OC)c1	/	3.8	/	i	2.1	/	-1.9
COc1cccc(C(=O)Nc2ccc(C(=O)c3ccccc3)cc2)c1	/	1.1	0.65	i	0.8	0.9	-0.6
